# Six1-Eya2 blk: inhibitors of human Six1/Eya2 interaction; Q15475+O00167; hit rate 0.56% among 360,000; activity change, % (concentration not given with the values); AlphaScreen GST-Six1/His-Eya2 binding, biochemical; active compounds read low; control for the full effect not named in the record; AID 651725; in the data active = activity change below about -65%; inconclusive = about -30% to -65%; inactive = above about -30%; also: % is scaled to controls: 0 for no effect and ±100 for the full control effect
#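 GST-Six1 + His-Eya2 (5X stock: 250/500 nM); Tris pH 8.0, 300 mM NaCl, 0.05% BSA, 0.02% Tween 20; GSH donor/Ni acceptor beads; 1 h 37 °C dark; AlphaScreen readout.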
# TRPML1 ag: human mucolipin-1 channel agonism | TRPML1-expressing cells, Ca2+ dye fluorescence, FDSS; host cell line not named in the record; reference of the full effect not given here | Q9GZU1 | hit rate 0.12% among 410,000 | AID 624414 | activation, % (concentration not given with the values); in the data active = activation above about 50%; inconclusive = about 30% to 50%; inactive = below about 30%; also: 0% is about no effect; the text of the record puts the active cut at 80%
# Target sequence (Q9GZU1 whole entry, looked up): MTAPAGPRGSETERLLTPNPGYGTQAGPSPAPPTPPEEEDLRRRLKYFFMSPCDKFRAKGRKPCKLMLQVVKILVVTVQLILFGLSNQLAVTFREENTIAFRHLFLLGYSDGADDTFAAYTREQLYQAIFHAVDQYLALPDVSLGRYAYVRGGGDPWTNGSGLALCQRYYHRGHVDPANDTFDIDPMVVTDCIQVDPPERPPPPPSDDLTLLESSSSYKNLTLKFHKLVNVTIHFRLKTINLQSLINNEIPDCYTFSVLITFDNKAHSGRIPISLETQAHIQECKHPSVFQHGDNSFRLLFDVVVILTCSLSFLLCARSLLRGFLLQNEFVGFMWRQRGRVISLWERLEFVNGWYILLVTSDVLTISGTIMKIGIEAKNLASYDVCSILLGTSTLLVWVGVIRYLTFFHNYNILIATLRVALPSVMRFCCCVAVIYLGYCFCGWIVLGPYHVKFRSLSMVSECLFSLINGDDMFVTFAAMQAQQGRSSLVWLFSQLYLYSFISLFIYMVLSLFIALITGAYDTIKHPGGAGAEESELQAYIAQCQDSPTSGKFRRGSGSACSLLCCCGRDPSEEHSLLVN
#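 TRPML1-DL cells, Tet-induced overnight (~16 h, 37 degrees C), loaded 45-90 min at room temperature with Ca8 no-wash calcium dye plus quencher. FDSS fluorescence: 10 s baseline, compound pin-transfer, 110 s agonist read, then EC80 54-4 (4uM final) and 110 s antagonist read.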
# CtBP-E1A blk: blocks the CtBP interaction with E1A; AlphaScreen GST-E1A/His-CtBP binding, 1536-well; active compounds read low; control for the full effect not named in the record; activity change, % (concentration not given with the values); hit rate 0.49% among 340,000; AID 651724; in the data active means activity change below about -65%; inconclusive means about -30% to -65%; inactive means above about -30%; also: % is scaled to controls: 0 for no effect and ±100 for the full control effect
#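 In 5 uL wells, 23 nL compound meets equimolar GST-E1A and His-CtBP (5X stock 125 nM each) for 2 h, 37 °C. Beads (5X, 50 ug/mL) then 1 h, 37 °C, dark.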
# D2 potentiator: human D2 receptor positive allosteric modulation; P14416; DiscoveRx D2 beta-arrestin cells, luminescence, 90 min; 100% = 57 uM dopamine signal; potentiation, % (test concentration not listed); hit rate 0.23% among 360,000; AID 624464; active = potentiation of 50% or more; inconclusive = 30% to 50%; inactive = 30% or less;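 also: compound concentration not given in the record; tested on top of an EC20 dose of dopamine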
# Target sequence (P14416 whole entry, looked up): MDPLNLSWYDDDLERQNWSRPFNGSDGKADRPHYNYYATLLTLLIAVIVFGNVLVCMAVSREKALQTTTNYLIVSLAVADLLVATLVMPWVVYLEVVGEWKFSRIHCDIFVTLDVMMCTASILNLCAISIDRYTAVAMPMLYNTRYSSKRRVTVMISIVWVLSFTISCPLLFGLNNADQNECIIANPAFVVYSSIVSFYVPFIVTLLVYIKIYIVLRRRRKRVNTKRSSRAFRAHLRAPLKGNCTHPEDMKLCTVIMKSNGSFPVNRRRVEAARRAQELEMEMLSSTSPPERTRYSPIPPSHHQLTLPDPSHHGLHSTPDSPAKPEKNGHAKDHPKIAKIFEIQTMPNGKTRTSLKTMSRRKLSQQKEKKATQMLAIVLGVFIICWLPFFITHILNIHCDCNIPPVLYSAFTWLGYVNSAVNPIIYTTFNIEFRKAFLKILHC
#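 PathHunter beta-arrestin assay in DiscoveRx D2 cells. Compounds were added with an EC20 of dopamine (50 nM final) for 90 min at 37 deg C. Luminescence was read 1 h after detection reagent, with 57 uM dopamine as the EC100 control.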
# PINK1 modulator: changes PINK1 expression; PINK1 immunofluorescence, high-content cytometry, 24 h; Potency, µM (titrated, usually from 76.6 µM), for the others: top-dose activation (PINK1 increase), actives largely listed as activators; hit rate 0.2% among 410,000; AID 624263; active = well fitted activation curve with a large enough effect; inconclusive = small, poorly fitted or top-dose-only effect; inactive = flat fitted curve, though single readings scatter; cell line not stated here;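 also: potency is read from the fitted curve at half-maximal effect; % of control where 0% means no effect; nearly all actives have a fitted effect of over 65% in size; a mitochondrial uncoupler was the plate control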
#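 Fluorescence from anti-PINK1 antibody, together with nuclear and cell stains, was scanned on a laser-scanning cytometer. Before staining, stable-line cells were incubated 24 hours with compounds at 5 concentrations; primary antibody 12 h at 10 degrees C.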
# D2 agonist: agonists of human D2 dopamine receptor (beta-arrestin); hit rate 0.084% among 360,000; activation, % (test concentration not listed); DiscoveRx PathHunter D2 beta-arrestin, luminescence, 90 min; 100% = 57 uM dopamine signal; P14416; in the data active = activation above about 40%; inconclusive = about 15% to 40%; inactive = below about 15%; also: compound concentration not given in the record; the text of the record calls up to 30% inactive
#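 Agonist mode: compounds alone added to overnight-plated D2 PathHunter cells for 90 min at 37 C, with 57 uM final dopamine (EC100) defining full response. Beta-arrestin recruitment detected by chemiluminescent reagent, read after 1 h at ambient temperature.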
# * marks the source's active call; other numbers are inactive results; ? = inconclusive; nt = no result given; & = joins results of further samples; [ ] = dose if it differs, or a comment.
SMILES,Six1-Eya2 blk,TRPML1 ag,CtBP-E1A blk,D2 potentiator,PINK1 modulator,D2 agonist
Cc1cc(C(=O)CSc2nnnn2C)c(C)n1CCc1ccc(Cl)cc1,6,-0.3,0,-23,3.1%,-1.9
O=C(c1ccccc1)N(c1ccccc1)c1nccc2ccccc12,-1,0.0,-2,nt,0.2%,-1.2
CCOC(=O)Cc1nc(-c2ccc(Cl)cc2)n[nH]1,-2,3.5,-8,-2,1.1%,-4.6
O=C1c2ccccc2C(=O)C1C(=O)C1CC1,2,2.2,2,-1,1.4%,2.8
CCCn1c(SC(C)C(=O)NC2CC2)nnc1-c1ccncc1 (stereo unspecified),11,0.8,5,0,-0.1%,-0.4
COc1ccc2cc(C#CC3=CC(=O)C[C@H](c4ccc(F)cc4)C3)ccc2c1,-7,0.2,1,0,14%,-7.1
COc1ccc2c(c1OC)C(=O)OC2Nc1nc(-c2cc3cc(Br)ccc3oc2=O)cs1 (stereo unspecified),3,2.1,21,-1,-1.2%,2.7
CCCCNC(=O)c1cc2nc(-c3ccccc3)cc(C(F)(F)F)n2n1,2,-0.5,11,-12,8.6%,-6.6
C[n+]1cccc2c(Br)ccc([O-])c21,2,-1.0,?,19,0.3%,13
COc1cccc(NC(=O)N2CCN(S(C)(=O)=O)CC2)c1,13,-0.3,nt,-3,1.4%,-0.9
Cc1ccc(N2CCN(C(=O)c3[nH]c(C(F)(F)F)nc3-c3ccccc3)CC2)cc1,-19,0.4,-11,-3,1.5%,1.3
O=C(CN1C(=O)NC2(CCCc3ccccc32)C1=O)N1CCc2ccccc2C1 (stereo unspecified),5,2.4,8,-13,0.1%,-2.9
COc1ccc(C(NC(=O)c2ccco2)c2ccc(OC)c(OC)c2)cc1OC,2,0.1,5,-6,1.6%[38.3 µM],-1.1
COc1cc(OC)c(C(=O)OCC(=O)Nc2ccccc2Cl)cc1OC,-2,-1.1,1,-8,-0.1%,-6.5
CC1=NN(C(=O)c2nn(C)cc2Br)C(O)(C(F)(F)F)C1 (stereo unspecified),3,1.0,-1,-3,7.2%,-2.6

# The list goes on; the last two above are carried over.
SMILES,Six1-Eya2 blk,TRPML1 ag,CtBP-E1A blk,D2 potentiator,PINK1 modulator,D2 agonist
COc1cc(OC)c(C(=O)OCC(=O)Nc2ccccc2Cl)cc1OC,-2,-1.1,1,-8,-0.1%,-6.5
CC1=NN(C(=O)c2nn(C)cc2Br)C(O)(C(F)(F)F)C1 (stereo unspecified),3,1.0,-1,-3,7.2%,-2.6
Cc1ccsc1C(=O)Nc1ccc(C(=O)O)cc1,5,0.5,-1,-4,2.0%,-4.2
O=C(c1cccc(S(=O)(=O)N2CCCCCC2)c1)N1CCN(c2ccccc2)CC1,-1,4.7,2,-2,-0.8%,3.7
O=C(COc1ccc(Br)cc1)NCCCN1CCCC1=O,-1,-0.5,0,-4,-0.8%,0.3
O=C(CC1SC(N2CCCC2)=NC1=O)Nc1ccc(C(=O)NCc2ccc(F)cc2)cc1 (stereo unspecified),7,1.3,-11,6,1.5%,-3.6
C=CCn1c(SCC(=O)NCc2cccs2)nnc1C1CCCCC1,4,2.6,5,4,25%[38.3 µM],-2.4
NC(=O)C1CCN(C(=O)CN2CCc3ccccc32)CC1,2,-0.5,-8,1,-1.7%,1.5
Cc1cc(Nc2ccccc2Cl)n2nnnc2n1,-8,-0.1,0,2,-0.5%,-3.7
CCc1cc(CNC(=O)c2cc(COc3ccc(C)nc3)on2)on1,3,-0.6,-1,-17,2.9%,2.7
COc1ccc(S(=O)(=O)N2CCC(C(=O)NCc3cccnc3)CC2)cc1OC,2,0.3,0,-1,0.6%,1.4
COc1ccc(C(=O)C2CCCN(Cc3cccn3-c3nccs3)C2)cc1OC (stereo unspecified),7,0.6,-5,-19,1.6%,-1.2
CCOC(=O)C1=C(C)OC(N)=C(C#N)C1c1ccc(O)c(OC)c1 (stereo unspecified),-11,3.9,0,-15,-0.6%,-1.9
COc1ccc2c(=O)cc(-c3ccccc3F)oc2c1,-21,0.0,0,0,-0.6%,-6.2
COc1ccc2oc(C(=O)OCC(=O)NC3CCS(=O)(=O)C3)c(C)c2c1 (stereo unspecified),21,-0.7,-7,-9,2.3%,-1.6
CC[n+]1c(/C=C2\C=C(C)CC(C)(C)C2)sc2ccccc21,-3,0.4,3,-15,13µM*,0.1
Cc1ccccc1-c1nc(NC(C)C)nc2cc(-c3ccccc3)sc12,17,-0.3,21,-9,?,-5.1

# Single values from above:
# Under Six1-Eya2 blk, Cc1ccsc1C(=O)Nc1ccc(C(=O)O)cc1 reads 5
# Under D2 agonist, O=C(COc1ccc(Br)cc1)NCCCN1CCCC1=O reads 0.3

# The listing continues.
SMILES,Six1-Eya2 blk,TRPML1 ag,CtBP-E1A blk,D2 potentiator,PINK1 modulator,D2 agonist
O=C(CCc1nc2ccccc2s1)Nc1cccnc1,2,0.0,2,3,-0.4%,1.3
Nc1cc(N)cc(C(=O)OCC(=O)Nc2cc(S(=O)(=O)N3CCCCC3)ccc2Cl)c1,-23,-1.0,-16,6,1.3%,-2.0
Cc1ccc(C2=NCCn3c2c2ccc(C(F)(F)F)cc2[n+]3[O-])cc1,1,-0.1,nt,-1,1.0%,4.4
Cc1cc(C)cc(C(=O)NCC(=O)OCC(=O)N2c3ccccc3NC(=O)C2(C)C)c1,6,-0.4,9,-7,-0.3%,-4.7
O=C(CCC(=O)N1CCOc2ccccc21)Nc1cc(F)ccc1F,2,0.6,6,-5,0.0%,-0.3
Cc1ccc(S(=O)(=O)N2CCCC2C(=O)NCCc2nc3ccccc3[nH]2)cc1 (stereo unspecified),3,2.5,-6,-10,-1.9%,-0.3
CC(C)n1c(SCC(N)=O)nc2c1c(=O)[nH]c(=O)n2C,2,-1.4,10,7,-0.7%,-0.3
COc1ccc(-n2nc3cc(C)c(NC(C)=O)cc3n2)cc1,5,0.6,1,0,12%,-7.0
COc1cc(SC)ccc1C(=O)Nc1ccncc1,0,0.9,nt,-5,-1.5%,7.8
CC(NC(=O)[C@H](NC(=O)[C@@H]1Cc2ccccc2CN1)c1ccccc1)c1ccccc1 (stereo partly specified),0,nt,-4,-26,-0.6%,-3.6
COCCN(CCOC)Cc1cc(=O)oc2ccccc12,6,-0.5,6,-1,0.4%,-5.0
COc1cccc(CNC(=O)N2CCN(c3ccccc3C)CC2)c1,-6,0.5,-8,-5,-3.2%,-2.5
O=C(NCc1ccncc1)C(=O)NCC1OCCN1S(=O)(=O)c1ccccc1 (stereo unspecified),8,-0.1,-1,-25,-0.5%,-3.2
Fc1cccc(/C=N/Nc2ccc(Cl)nn2)c1,-15,-0.5,?,-9,5.0%,11
CCOC(=O)C1(C)CCCCN1C(=O)c1ccc(F)c(C)c1 (stereo unspecified),6,-0.2,-6,-12,1.0%,-5.0

# Some entries already given, reduced to D2 potentiator and D2 agonist.
structure	D2 potentiator	D2 agonist
CC(C)n1c(SCC(N)=O)nc2c1c(=O)[nH]c(=O)n2C	7	-0.3
COc1ccc(-n2nc3cc(C)c(NC(C)=O)cc3n2)cc1	0	-7.0
COc1cc(SC)ccc1C(=O)Nc1ccncc1	-5	7.8
CC(NC(=O)[C@H](NC(=O)[C@@H]1Cc2ccccc2CN1)c1ccccc1)c1ccccc1 (stereo partly specified)	-26	-3.6

# Other results.
SMILES,Six1-Eya2 blk,TRPML1 ag,CtBP-E1A blk,D2 potentiator,PINK1 modulator,D2 agonist
CCCCn1c(N)c(N(CCC(C)C)C(=O)c2ccc([N+](=O)[O-])o2)c(=O)[nH]c1=O,4,-0.2,2,?,-0.1%,1.0
O=C(CSc1nnc(-c2c[nH]c3ccccc23)n1-c1ccc(F)cc1)NCc1ccco1,-21,-0.7,12,-23,-1.8%,-1.9
CCCn1c(SCC(=O)Nc2nnc(C)s2)nnc1-c1ccoc1C,-3,2.9,-1,-3,-2.0%,-3.2
O=C1c2cccc3cccc(c23)C(=O)N1CCN1CCN(CC(O)COc2ccccc2)CC1 (stereo unspecified),-10,2.9,3,-33,7.4%,-7.7
Cc1ccc(-n2c(C)cc3c2CC(C)(C)CC3=O)cc1C,-18,-0.1,-9,-9,-1.4%,-5.1
COc1cc(/C=C/[N+](=O)[O-])ccc1OC(=O)c1cc2ccccc2oc1=O,-4,-0.2,9,1,2.3%,-4.1
CCOc1ccc(C2C(C(=O)c3ccc(C)o3)=C(O)C(=O)N2CCN2CCOCC2)cc1OC (stereo unspecified),5,-0.3,5,-2,-1.3%,-3.6
CCOC(=O)CCCCCCCCC(=O)Nc1ccc(-n2[nH]c(=O)cc2C)cc1,-1,4.7,-6,-6,-2.3%,4.7
Cc1ccc(S(=O)(=O)N2CCCCC2)cc1,5,-0.2,9,-8,0.8%,-0.9
COc1ccc(C(CC(=O)N2CCCC2)c2c(OC)cc(OC)c3ccc(=O)oc23)cc1 (stereo unspecified),2,0.7&0.3,4,-9,0.4%,-0.2
Cc1cc(=O)nc2c3ccccc3n(C(C)C(=O)NCCN3CCOCC3)n12 (stereo unspecified),2,0.5,11,-11,-0.7%,-1.1
O=C(O)CC(Cc1ccc(Br)cc1)C(=O)O (stereo unspecified),10,0.1,3,-6,0.4%,-0.4
CN(c1cccc(NC(=O)COc2ccccc2)c1)S(C)(=O)=O,5,0.8,8,-21,nt,-1.3
CC(Sc1ccc(S(=O)(=O)N2CCN(C)CC2)cn1)C(=O)NC1CCCC(C)C1C (stereo unspecified),9,-0.4,3,-4,0.3%,-1.7
CC1Cc2ccccc2N1C(=O)c1ccc(N2CCCCC2)c([N+](=O)[O-])c1 (stereo unspecified),?,4.2,-11,4,3.3%,0.7
Cc1cc(C)nc(NS(=O)(=O)c2ccc(NC(=O)c3ccccc3[N+](=O)[O-])cc2)n1,10,nt,nt,-13,1.2%,-2.6
CCOc1cc(C2C3=C(CC(C)(C)CC3=O)OC3=C2C(=O)CC(C)(C)C3)cc([N+](=O)[O-])c1O,-1,-0.3,-5,-3,0.5%,-2.5
COc1cc(N/N=C/c2ccccc2O)ncn1,-88*,1.4,-96*,-15,9.7%,-9.2
O=C(CSc1nc2c([nH]c3ccccc32)c(=O)n1-c1ccc(F)cc1)NCc1ccco1,2,2.7&-1.0,6,-1,?,5.2
CN1CCN(CC(O)COc2ccc(OCC(O)CN3CCN(C)CC3)cc2)CC1 (stereo unspecified),3,-0.6,1,1,2.4%,-1.6
COc1cccc(/C=C/C(=O)Nc2ccc(N3CCOCC3)cc2)c1OC,-7,-0.9,2,-2,-0.2%,-1.5
N#C/C(=C(/O)COC(=O)c1ccc2c(c1)OCCO2)c1nc2ccccc2[nH]1,-14,0.8,-15,6,1.4%,0.2
CC(C)C(NC(=O)/C(=C/c1ccco1)NC(=O)c1ccc(Br)o1)C(=O)O (stereo unspecified),-11,1.3,nt,-1,-0.1%,-2.8
O=C(CCN1CCOCC1)c1ccc(Cl)cc1,14,0.5,-14,-8,-0.3%,-2.0
COc1cc(C(=O)Nc2cccc(-n3cnnn3)c2)cc(Cl)c1OC,-2,-1.3,1,-8,-1.4%,0.0
Cc1cccc(N=Nc2c(N)n[nH]c2-c2ccc(Cl)cc2)c1,-17,2.0,-23,-15,27%[38.3 µM],-5.1

# Compound activity deposited in PubChem BioAssay by National Center for Advancing Translational Sciences (NCATS).
